# RVFV N-RNA inh: inhibitors of RVFV nucleoprotein–RNA binding, primary screen, biochemical, fluorescence polarization | hit rate 0.1% among 20,000 | P21700 | RVFV N-RNA binding; hits give low values | % bound, % (concentration not given with the values);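 active = between 0 and 58% in either replicate with normal brightness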;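 note: 100 nL library stock added to about 12 µL; 100% = protein and probe without compound and 0% = probe alone; numbers are from one replicate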
# Target sequence (P21700 whole entry, looked up): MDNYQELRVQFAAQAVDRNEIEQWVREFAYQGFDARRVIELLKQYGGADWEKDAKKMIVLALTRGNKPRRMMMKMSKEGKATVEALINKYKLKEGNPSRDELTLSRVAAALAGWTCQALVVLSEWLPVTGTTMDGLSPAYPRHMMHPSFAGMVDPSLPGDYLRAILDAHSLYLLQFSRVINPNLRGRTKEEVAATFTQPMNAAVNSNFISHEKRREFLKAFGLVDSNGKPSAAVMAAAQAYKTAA
# Active calls of the source: *; & = joins results of further samples. A portion of the library; rates above refer to the full screens.
SMILES,RVFV N-RNA inh
CN(CC(N)=O)S(=O)(=O)c1ccc2ccccc2c1,94
Oc1c(/C=N/n2cnnc2)sc2ccccc12,102
Cc1ccc(C(=O)N/C(=C\c2ccco2)C(=O)N(C)C)cc1,80
O=S(=O)(c1ccccc1C(F)(F)F)N1C=CC(C(F)(F)F)=NCC1,95
CSc1nc(=O)cc(N)n1-c1ccccc1,93
CCCC(=O)Nc1ccc2c(c1)ncn2CC,94
CC1=C(CCC2(C)OCCO2)C(C)(C)CCC1,96
N=C1S/C(=C\c2ccc(F)cc2)C(=O)N1c1nccs1,100
Cc1c(S(=O)(=O)c2ccc(Cl)cc2)csc1S(=O)(=O)N1CCCCC1,100
FC(F)(F)c1cccc(NC(=S)N2CCCCC2)c1,98
O=C(CCc1nnc2n(Cc3ccccc3)c(=O)c3ccccc3n12)NCc1ccccn1,94
O=C(NCc1cccs1)c1nc2ncccn2n1,96
Nc1c(N)c2ccccc2oc1=O,102
CCOC(=O)c1cnc2cc(-c3ccc(I)cc3)[nH]n2c1=O,98
O=C1CC(N2CCN(c3ccccn3)CC2)C(=O)N1c1ccc2c(c1)OCO2 (configuration not stated),91
CN1CCc2c(c(S)[nH]c(=S)c2C#N)C1,68
CCCS(=O)(=O)N1CCC2(CC1)CC(=O)c1ccccc1O2,102
CCOP(=S)(NC(C)C)OCC,80
COc1ccc(NC(=S)NC(C)(C)C)cc1,95
C=CCC(c1ccncc1)/[N+]([O-])=C\c1ccccc1 (configuration not stated),83
CCNS(=O)(=O)c1cccc(S(=O)(=O)c2ccc(Cl)cc2)c1,99
O=C1CCSC2=C1CS(=O)(=O)c1ccc(Cl)cc12,91
CC1CCN(C(=O)c2ccc(S(=O)(=O)N(C)C)cc2)C(C)C1 (configuration not stated),91
CCCCc1nnc(NC(=O)CSc2nc(O)c(NC(C)=O)c(=O)[nH]2)s1,81
O=C(CN1C(=O)CCC1=O)Nc1ccccc1-c1nc2ccccc2o1,96
O=C(N=S1CCN(c2ncc(C(F)(F)F)cc2Cl)CC1)Nc1ccc(Cl)cc1,98
CN1CCN(c2ccccc2C=C(C#N)C#N)CC1,94
CC(C)(C)NC(=S)N/N=C/c1ccc(O)cc1,94
OC(Cn1cncn1)(Cn1cncn1)c1ccc(F)cc1F,99&92
COc1ccc(N=C2SCC(C(C)(C)C)=NN2C)cc1,98
CN1CCOc2cc(S(=O)(=O)NC3CCCCNC3=O)ccc21 (configuration not stated),111
COC(=O)/C(C#N)=C/c1cccc(Br)c1,91
O=C(CCS(=O)(=O)Cc1ccccc1)N1CCN(C(=O)c2ccco2)CC1,98
CC1SCC(=O)N(CC(=O)NC2CCCCC2)C1=O (configuration not stated),95
CC(=O)N1CCC(C(=O)O/N=C(\N)c2ccc(Cl)cc2)CC1,99
COc1cc(S(=O)(=O)n2cnc3cc(C)c(C)cc32)ccc1Cl,92
COc1ccc(/C=N/NC(=O)c2ccccc2)cc1OC,101
C/C(=N/N=C1/NC(=O)CC(C(=O)O)S1)c1ccccc1 (configuration not stated),97
N[C@@H](Cc1ccc(F)cc1)C(=O)O,94
O=C(Nc1c2c(nn1-c1ccccc1)CS(=O)C2)c1ccccc1 (configuration not stated),92
COc1ccccc1C(=O)Nc1cc(C)c(OCC(=O)N2CCOCC2)c(C)c1,98
COC(=O)c1nn(-c2cccc(Cl)c2)cc(OC)c1=O,90
COc1ccc(CCNC(=O)CSCc2n[nH]c(=O)[nH]2)cc1OC,95
COc1cccc(NC(=O)C2C3C=CC(C4CC34)C2C(=O)O)c1 (configuration not stated),108
N#C/C(=C/c1ccco1)c1ccc(Br)cc1,97
Cc1cc(Cl)ccc1NC(=O)CSc1nnc(/N=C/N(C)C)s1,100
N#C/C(=C\C=C\c1ccco1)c1nc2c(s1)CCCC2,94
O=C(O)CC1S/C(=N/N=C/C=C/c2ccccc2)NC1=O (configuration not stated),96
CCC(=O)Nc1ccccc1C(=O)N(C)C,99
Cc1cnc(=O)[nH]c1SCc1ccc(C(F)(F)F)cc1,85
CC(=O)Oc1cc2c(s1)CCN([C@H](C(=O)C1CC1)c1ccccc1F)C2,101
CC1=CCC2C(=O)N(CCCC(=O)O)C(=O)C2C1 (configuration not stated),92
O=c1c2ccccc2[nH]c(=S)n1/N=C/c1ccccc1,101
C[C@H](CCC(=O)O)[C@H]1CC[C@H]2[C@@H]3C(=O)C[C@@H]4CC(=O)CC[C@]4(C)[C@H]3CC(=O)[C@]12C,110
COCC(=O)Oc1c(C)cc(Br)cc1C,101
O=C(Oc1c(C(=O)c2ccccc2)sc2ccccc12)c1ccco1,96
C=CCS(=O)(=O)Nc1ccccc1,95
Cc1ccc(CNC(=O)c2cccn3c(=O)c4ccc(Cl)cc4nc23)o1,96
COCCNC(=O)C1CCC(Cn2c(=S)[nH]c3ccccc3c2=O)CC1 (configuration not stated),94
CCCCOC(=O)Nc1[nH]c(C)c(C(=O)OCC)c1C,102

# A stretch taken from the entries so far, for reference:
SMILES,RVFV N-RNA inh
CCC(=O)Nc1ccccc1C(=O)N(C)C,99
Cc1cnc(=O)[nH]c1SCc1ccc(C(F)(F)F)cc1,85
CC(=O)Oc1cc2c(s1)CCN([C@H](C(=O)C1CC1)c1ccccc1F)C2,101
CC1=CCC2C(=O)N(CCCC(=O)O)C(=O)C2C1 (configuration not stated),92
O=c1c2ccccc2[nH]c(=S)n1/N=C/c1ccccc1,101
C[C@H](CCC(=O)O)[C@H]1CC[C@H]2[C@@H]3C(=O)C[C@@H]4CC(=O)CC[C@]4(C)[C@H]3CC(=O)[C@]12C,110
COCC(=O)Oc1c(C)cc(Br)cc1C,101
O=C(Oc1c(C(=O)c2ccccc2)sc2ccccc12)c1ccco1,96
C=CCS(=O)(=O)Nc1ccccc1,95
Cc1ccc(CNC(=O)c2cccn3c(=O)c4ccc(Cl)cc4nc23)o1,96
COCCNC(=O)C1CCC(Cn2c(=S)[nH]c3ccccc3c2=O)CC1 (configuration not stated),94
CCCCOC(=O)Nc1[nH]c(C)c(C(=O)OCC)c1C,102

# Ordered by formula weight (rising): part of the list above.
SMILES,RVFV N-RNA inh
CC1=CCC2C(=O)N(CCCC(=O)O)C(=O)C2C1 (configuration not stated),92
O=c1c2ccccc2[nH]c(=S)n1/N=C/c1ccccc1,101
CCCCOC(=O)Nc1[nH]c(C)c(C(=O)OCC)c1C,102
O=C(O)CC1S/C(=N/N=C/C=C/c2ccccc2)NC1=O (configuration not stated),96
O=C(Oc1c(C(=O)c2ccccc2)sc2ccccc12)c1ccco1,96
Cc1cc(Cl)ccc1NC(=O)CSc1nnc(/N=C/N(C)C)s1,100
COCCNC(=O)C1CCC(Cn2c(=S)[nH]c3ccccc3c2=O)CC1 (configuration not stated),94
C[C@H](CCC(=O)O)[C@H]1CC[C@H]2[C@@H]3C(=O)C[C@@H]4CC(=O)CC[C@]4(C)[C@H]3CC(=O)[C@]12C,110

# The listing continues:
SMILES,RVFV N-RNA inh
CCCCC(CC)CN1CNC(=S)NC1 (configuration not stated),97
O=C(O)/C=C1\NC(=O)c2ccccc21,94
COc1ccccc1-n1ccnc1SCC(N)=O,102
Cc1oc(C(C)(C)C)cc1C(=O)Nc1ccc(C(F)(F)F)c(C#N)c1,93
COC(=O)c1sc2cc(NC(=S)Nc3ccn(C)n3)ccc2c1Cl,100
N#Cc1nnn2c1nc(N)c1c(F)cccc12,96
CCOc1cc(CNC(CC)CO)c(Br)cc1OCC(N)=O (configuration not stated),96
Oc1[nH]c2ccccc2c1C=Nc1ccc2c(c1)CCC2,98
O=c1[nH]n(CCO)c(=O)c2ccccc12,101
CS(=O)(=O)c1ncc(CO)n1Cc1ccccc1,91
N#CCCSc1ccccc1NC(=O)c1ccc2ncsc2c1,91
Cc1cccc(NC(=O)CN2C(=O)c3ccccc3S2(=O)=O)n1,93
CCN1CCC(NCCOC)CC1,97
Cc1noc(NS(=O)(=O)c2ccc(N)cc2)c1C,98
Cn1cc(SCC(=O)NCc2ccc3c(c2)OCO3)c2ccccc21,90
OCCOc1ccccc1OCCO,93
C=CCN1C(=O)/C(=C\N(C)C)S/C1=N/S(=O)(=O)c1cccs1,92
CC(=O)[C@@]1(O)CC[C@H]2[C@@H]3C[C@H](C)C4=CC(=O)CC[C@]4(C)[C@H]3CC[C@@]21C,106
COC(=O)c1ccc(C2NN=C(c3ccccc3)S2)cc1 (configuration not stated),93
NC(N)=NN=C1CCC(=NN=C(N)N)CC1,90
Cc1cc(OCc2nc(-c3ccncc3)no2)c(C)cc1Br,95
Cc1cc(C)c(/C=C2\C(=O)Nc3ccccc32)[nH]1,104&110
CCOc1ccc(S(=O)(=O)Nc2cccc(-c3ccc4nncn4n3)c2)cc1,110
CC(C)CN1C(=O)C=CC1=O,86
COC(=O)/C(C#N)=C/c1ccccc1C,96
CC(C)(C)N(C(=O)c1cc2ccccc2o1)C(=O)N1CCCCC1,91
CC(Cc1ccccc1)N1C(=O)c2ccccc2C1=O (configuration not stated),80
CC(C)(C)/C(=N/O)c1ccccc1,95
CCC(C(=O)NC(C)c1ccc2c(c1)OCO2)c1ccccc1 (configuration not stated),89
O=C(COC(=O)c1ccccc1)c1ccccc1,98
O=S(=O)(Cc1ccccc1)Nc1ccccc1,99
COc1cc(Cl)cc(C(=O)O)c1OCC(=O)O,101
O=C(/C=C/c1ccccc1)N1CCN(c2ccc(N3CCCCC3)nn2)CC1,97
Oc1ccccc1OCCCCCOc1ccccc1O,97
O=C(OCc1ccc2c(c1)OCO2)c1cc2ccccc2oc1=O,104
Cc1ccc(C)c(/C(O)=C2\C(=O)C(=O)N(CCN(C)C)C2c2cccc(Br)c2)c1 (configuration not stated),82
CN(C)C=NC(=O)CN1CCCC1=O,93
O=C1CS/C(=N/N=C/c2ccccc2)N1c1ccc(O)cc1,94
Cc1ccccc1OC(C)C(=O)NCc1ccccc1 (configuration not stated),94
O=C(CSc1ccccc1)N1CCCCC1,97
COc1ccc(C(N)=CC(=O)C(C)(C)C)cc1,88
CC1(C)OC2C(O1)[C@@H](CO)O[C@H]2n1cnc2c(N)ncnc21 (some centres not stated),100
CCOC(=O)c1ccccc1NC(=O)CSCc1ccccc1,114
CN1CCN(C(=S)c2ccc(F)cc2)CC1,101
COc1ccc(/C=N/N2C(=O)C3C4C=CC(C4)C3C2=O)cc1Br (configuration not stated),105
CN(C)[C@@H]1C(=O)C(C(N)=O)=C(O)[C@@]2(O)C(=O)C3=C(O)c4c(O)cccc4[C@@](C)(O)[C@H]3C[C@@H]12,98
CCOC(=O)N1CCN(Cn2nc(-c3ccc(Cl)cc3)n(Cc3ccccc3)c2=S)CC1,98
O=S(=O)(c1cccc(C(F)(F)F)c1)N1CCN(c2ncccn2)CC1,91
O=C(Cn1nc(-c2ccco2)ccc1=O)Nc1cccc2ccccc12,98
Cc1n[nH]c(=S)n(/N=C/c2cccs2)c1=O,96
CCS(=O)(=O)c1ccc(I)s1,100
CC(C)C(NC(=O)c1ccccc1)C(=O)O (configuration not stated),99
Cc1ccccc1NCN1C(=O)C2=C(CCCC2)C1=O,100
CCOC(=O)c1c(OCC)[nH]c2ccc(O)cc12,103
O=c1cc(CN2CCc3ccccc3C2)occ1OCc1ccc(F)cc1,94
CC(C)(C)CC(C)(C)NC(=O)Nc1ccc(F)cc1,98
COc1ccc(OCC(O)CNS(=O)(=O)c2ccc(NC(C)=O)cc2)cc1 (configuration not stated),94
O=S(=O)(NCC1COC2(CCCCC2)O1)c1ccc(Cl)s1 (configuration not stated),93
C=C(c1ccc(C(=O)O)cc1)c1cc2c(cc1C)C(C)(C)CCC2(C)C,94
CC(=O)Nc1ccc(NC(=O)CCC2CCCC2)cc1,104

# 2 of these compounds, reformatted.
compound	RVFV N-RNA inh
O=C(Cn1nc(-c2ccco2)ccc1=O)Nc1cccc2ccccc12	98
Cc1n[nH]c(=S)n(/N=C/c2cccs2)c1=O	96

# Copied from the list.
# In RVFV N-RNA inh, Oc1ccccc1OCCCCCOc1ccccc1O is listed with 97
# In RVFV N-RNA inh, N#C/C(=C\C=C\c1ccco1)c1nc2c(s1)CCCC2 is listed with 94
# In RVFV N-RNA inh, O=C(CCS(=O)(=O)Cc1ccccc1)N1CCN(C(=O)c2ccco2)CC1 is listed with 98

# (more compounds)
SMILES,RVFV N-RNA inh
O=[N+]([O-])c1ccc(CSc2ncnc3c2ncn3[C@@H]2O[C@H](CO)[C@H](O)C2O)cc1 (some centres not stated),93
O=C(Nc1ccc(C(=O)N2CCOCC2)cc1)c1ccc2c(c1)OCO2,97
COc1cc(OC)c2c(O)cc(=O)[nH]c2c1,96
O=C(CC1CCCC1)NCCc1cn2ccccc2n1,98
O=C(NCC(F)(F)F)Nc1ccccc1,96

# High-throughput results (PubChem BioAssay)
